NPYLR7 agonist = agonists of mosquito NPYLR7 receptor, primary screen, cell-based, Aedes aegypti, calcium fluorescence, mosquito biting behavior | HEK293T NPYLR7/Galpha15, GCaMP6s calcium fluorescence | activation, % at 10 µM | 270,000 compounds, 0.15% hits | AID 1259423, 2018; in the data active = activation above about 40%;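 note: 0% = vehicle and 100% = reference agonist at the receptor; some compounds past the cut are filed as inactive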
NPYLR7 agonist max-min = further read-out of NPYLR7 agonist, marked with its call; activation, %; measured here: Max-Min RFU normalised activation; some inactives read as strong as hits;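 span of the calcium signal over five minutes; 0% = vehicle and 100% = native peptide agonist; compound fluorescence can raise it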
Active calls of the source: *; & = joins results of further samples.

Each structure is followed by: NPYLR7 agonist	NPYLR7 agonist max-min
O=c1oc2ccc(Cl)cc2cc1-c1nnc(-c2cccc(F)c2)o1
 : 2.0	-4.5
Cc1cc2n(n1)C(c1ccco1)Nc1ccccc1-2 (stereo not drawn)
 : -5.7	-6.4
CSCCC(NC(N)=O)C(=O)Nc1ccc(C(C)C)cc1 (stereo not drawn)
 : -1.0	-0.3
O=C1NC(C2CC2)(C2CC2)C(=O)N1CN1CCCC1c1ccsc1 (stereo not drawn)
 : 10.2	7.7
COc1cc(C)c(Cl)cc1S(=O)(=O)NCc1ccc(C)cc1
 : 0.4	-1.7
CCn1ncnc1-c1c(-c2ccccc2)ncn1CC(C)Oc1cccnc1 (stereo not drawn)
 : 7.0	-3.0
O=C(NC1CCSc2ccccc21)C1CC2CCCC(C1)C2=O (stereo not drawn)
 : 1.6	-2.2
Cc1ccc(C(O)=C2C(=O)C(=O)N(CCCN(C)C)C2c2ccc(Cl)cc2)cc1 (stereo not drawn)
 : -5.5	-6.7
CC1CN(c2cc(Cl)nc(SCC(=O)NC3CCCCNC3=O)n2)CCN1C(=O)c1ccc(F)cc1 (stereo not drawn)
 : 12.8	21.9
O=C(NC(c1ccc(F)cc1)c1ccc2ccccc2n1)C1CCN(CCOc2ccccc2)CC1 (stereo not drawn)
 : 3.0	2.2
CC(OC(=O)Cc1ccc(F)cc1)C(=O)Nc1ccc2c(c1)OCCO2 (stereo not drawn)
 : 1.0	-1.6
CC(C)(C)NC(=O)c1cc(Cl)ccc1OC1CCN(Cc2cccnc2)CC1
 : -1.9	-6.6
O=C(CNC1CC1)N1CCc2sccc2C1c1ccc(Cl)cc1 (stereo not drawn)
 : -15.7	-10.8
CCC(C(=O)N1CCCN(c2nc(CC(C)C)nc3onc(-c4cccc(Oc5ccccc5)c4)c23)CC1)c1ccccc1 (stereo not drawn)
 : 8.0	29.1
Cc1cccc(-n2c(CNC(=O)c3ccc(S(=O)(=O)N4CCCC4)cc3)nnc2SCC(=O)N2CCc3ccccc32)c1
 : 7.6	12.6
Cc1cc(C)cc(NC(=O)CC(=O)NCCSc2ncn[nH]2)c1
 : 5.9	10.9
CSCCNC1CCN(c2ccc(NC(=O)c3ccc(C)cc3C)cc2)CC1
 : 12.7	-0.2
CC1(C(=O)NC2CCN(Cc3ccccc3)CC2)CCN1Cc1ccc(OC(F)(F)F)cc1 (stereo not drawn)
 : 14.0	10.1
COc1ccccc1-n1c(Cc2ccccc2)nnc1SCc1nc(C(=O)N2CCN(C/C=C/c3ccccc3)CC2)cs1
 : 15.7	12.7
O=C(NCCc1ccccc1)c1cnn2c1NC(c1cccs1)CC2C(F)(F)F (stereo not drawn)
 : 2.8	2.5
CCOC(=O)c1c(N)sc(C(=O)N2CCCCC2)c1C
 : 6.3	3.9
O=c1[nH]c(=S)[nH]c(O)c1C=NC1CCCCCC1
 : 5.6	3.8
COc1cc(C2CC(c3cccnc3)=NN2c2ccc(F)cc2)cc(OC)c1OC (stereo not drawn)
 : -1.0	-7.4
CCNC(=O)N(Cc1c(-c2ccccc2)noc1N1CCCCC1)CC1CCCO1 (stereo not drawn)
 : 6.1	4.6
CCc1ccc(Cl)c(CC)c1NC(=O)Cc1c(C)noc1C
 : 8.8	8.9
CCOC(=O)/C(=C\c1ccccc1)NC(=O)c1ccc(NC(C)=O)cc1
 : -10.9	-13.5
Cc1ccc(Cl)c(-c2nccn2CCN2CCNC2=O)c1F
 : -2.9	-8.6
Cc1cc(NC(=O)c2ccccc2)n(-c2nc3ccccc3s2)n1
 : -15.9	-21.0
Cc1nn(C(C)(C)C)c(OC(=O)c2cccc([N+](=O)[O-])c2C)c1S(=O)(=O)c1ccccc1
 : 1.8	32.4
COc1ccccc1CCN1CCC(CN(C)C(=O)C2CC(=O)c3ccccc32)CC1 (stereo not drawn)
 : 4.0	0.7
Brc1ccc(CN2CCC(NCc3ccn[nH]3)CC2)cc1
 : -1.3	-2.2
CCCCn1c(=O)c2c(nc3n2CCCN3Cc2ccccc2)n(C)c1=O
 : -0.5	6.3
CCn1c(CCNC(=O)CN2CCCN(C)CC2)nc2ccccc21
 : 6.6	0.1
CCN(CC(F)(F)F)C(=O)C1CCCN(C(=O)c2ccc[nH]2)C1 (stereo not drawn)
 : 9.0	6.4
Cc1nc(-c2cccs2)n(CC(=O)N[C@@H]2C[C@H]3CC[C@@H]2C3)c1C
 : 23.6	17.3
CCN(CC)S(=O)(=O)c1cc(C(=O)N2CC(C)OC(C)C2)ccc1C (stereo not drawn)
 : 2.3	-0.8
CCN1CCN(C2=C(c3c(C(C)C)[nH]n(-c4ccc(F)cc4)c3=O)C(=O)N(C3CCCCC3)C2=O)CC1
 : 1.9&2.6	8.1&2.5
Cc1cc(CNC(=O)NC2CCCc3cc(OC(F)F)ccc32)no1 (stereo not drawn)
 : -0.3	14.3
NCC(=O)Nc1ccc(-c2cccc(C(F)(F)F)c2)cc1F
 : 4.6	0.8
CCCCCCn1c(NCCOC)nc2c1c(=O)[nH]c(=O)n2C
 : 4.5	-0.6
O=C(CN(C1CC1)S(=O)(=O)c1cccc(C(F)(F)F)c1)N(CCc1c[nH]c2ccccc12)Cc1ccc(C(F)(F)F)cc1
 : -4.0	-2.0
CCCn1c(C)cc(C(=O)CN2C(=O)C(=O)N(CCc3cccs3)C2=O)c1C
 : 3.5	5.6
Clc1ccc2nc(SCc3csc(Cc4ccc(Cl)c(Cl)c4)n3)oc2c1
 : 5.4	6.7
CCCCC(CC)C(=O)N1CCC(c2nc(-c3ccc(F)c(F)c3)no2)CC1 (stereo not drawn)
 : 3.3	3.7
Cc1nn(C)c(N2CCOCC2)c1CN1CCCC(C(=O)c2ccccn2)C1 (stereo not drawn)
 : 16.4	13.1
COc1ccc(N2CCN(C(=O)C3CC=CCC3C(=O)NCCc3cccs3)CC2)cc1 (stereo not drawn)
 : -8.3	-15.9
Cc1nc(SCC(=O)N2CCCC2)c2c3c(sc2n1)CCC3
 : -2.7	-4.5
O=[N+]([O-])c1ccc(C2c3cccn3CCCN2Cc2ccc(F)c(Cl)c2)cc1 (stereo not drawn)
 : 2.7	15.6
CC1(C(=O)N2CCCC(C(=O)c3cccc(C(F)(F)F)c3)C2)CCCCC1 (stereo not drawn)
 : 2.2	-4.9
COc1ccc2nc(N(CCn3cccn3)C(=O)c3cccs3)sc2c1
 : -19.7	-24.0

Further entries.
Each structure is followed by: NPYLR7 agonist	NPYLR7 agonist max-min
O=c1ccc(-c2ccccc2)nn1CCNS(=O)(=O)c1cccc(C(F)(F)F)c1
 : 6.8	4.4
CCOC(=O)C1C(=N)OC2=C(C(=O)CCC2)C1c1ccc(Cl)cc1 (stereo not drawn)
 : 1.1	-5.1
CCCCC(O)CN(Cc1ccco1)Cc1c(CC)nn(-c2ccccc2)c1Oc1ccccc1 (stereo not drawn)
 : -1.5	5.9
COc1ccc(NC(=O)N(CC(=O)N(Cc2ccc(F)cc2)Cc2sccc2C)C2CCCCC2)c(OC)c1
 : 1.0	-5.4
CCOC(=O)c1ccc(NC(=O)CSc2nnc(CNC(=O)c3ccco3)n2-c2ccccc2OC)cc1
 : 12.6	9.1
C=CCNC(=O)c1ccccc1N1CCC(NC(=O)c2cc(F)cc(F)c2)CC1
 : 0.0	4.6
O=C(C1CCCN(Cc2ccco2)C1)N1C[C@H]2C[C@H](O)[C@H](O)C[C@H]2C1 (stereo partly drawn)
 : 4.1	2.9
Cn1c(=O)c(C(=O)Nc2ncccn2)c(O)c2ccccc21
 : -6.1	-7.6
CCS(=O)(=O)N1CCn2c(nc3ccccc32)C1
 : 7.4	7.6
COC1CCN(C(=O)C(N)=O)CC(=O)N(C)c2ccccc21 (stereo not drawn)
 : 3.2	8.1
COc1ccccc1-c1cccc(-c2cccc(NC(=O)CCc3ccccc3)c2)n1
 : -1.2	2.3
Cc1nn(C)cc1CN1CCOc2ccc(C3=Cc4ccccc4CC3)cc2C1
 : 15.3	1.5
CCCc1nnc2c(=O)n(-c3cccc(OC)c3)ccn12
 : -0.4	-9.4
CCc1nn2c(NCC3CCCO3)cc(C)nc2c1-c1ccccc1 (stereo not drawn)
 : 0.1	12.2
COc1ccc(-n2cc(-c3ccccc3)c3c(NCC(OC)OC)ncnc32)cc1
 : 0.0	0.3
CS(=O)(=O)c1ncc(Cl)c(C(=O)O)n1
 : 12.6	8.0
COCCNc1nc(Oc2ccccc2)c2sccc2n1
 : 2.7	-1.2
CCCN(CC(=O)N(Cc1ccc(F)cc1)Cc1ccco1)C(=O)Nc1ccc(C)c(Cl)c1
 : 1.1	10.2
CC(C)C(=O)N(CCN(C)C)Cc1csc(COc2cc(Cl)ccc2Cl)n1
 : 11.9	9.4
CCCOc1cccn2c(N(C)C(=O)c3ccccc3F)c(CC)nc12
 : -6.3	-9.6
CCNC(=O)N1C[C@H](Oc2ccccn2)[C@H]2C[C@@H]1Cc1c2[nH]c2ccccc12
 : 24.0	20.8
CC(=O)NCCNC(=O)c1nnc2n1CCN(Cc1ccccc1)C2
 : 7.5	1.8
COc1ccc(N=c2oc3ccc(Br)cc3cc2-c2nc3ccccc3[nH]2)cc1
 : 2.8	11.8
CC(=O)N1CCC(NCc2ccc(-n3ccnc3C)cc2)CC1
 : 3.5	1.9
c1cc(-c2nc3c4c5c(sc4ncn3n2)CCCC5)ccn1
 : 3.9	2.1
COc1ccc(-c2cccc(-n3cncc3C(=O)NC(C)c3ccc(Br)cc3)c2)cc1OC (stereo not drawn)
 : -1.5	-11.1
N#Cc1ccc(S(=O)(=O)N2CCCC2c2ccc3c(c2)OCCCO3)cc1 (stereo not drawn)
 : 9.4	9.6
CN(Cc1cccn1C)C(=O)CNC(=O)c1ccc(F)c(F)c1
 : 3.8	2.1
CC(C)(CO)NC(=O)c1ccc(Cl)c(S(=O)(=O)N2CCCCC2)c1
 : -5.0	-10.8
Cc1ccc(C(=O)O)cc1S(=O)(=O)Nc1ccc2cnn(C(C)C)c2c1
 : 6.5	5.8
CCc1cc(-c2cccc(-n3cccn3)c2)ccc1NC(C)=O
 : 2.4	0.2
c1ccc(-c2cnc(CN3CCSc4ccccc43)o2)cc1
 : 5.6	2.9
Cc1nn(-c2ccccn2)c2c1C(c1ccnn1-c1ccccc1)CC(=O)N2 (stereo not drawn)
 : 21.4	5.4
COc1ccccc1OC(C)(C)C(=O)N1CCC(O)(CN(C)C)C1 (stereo not drawn)
 : 23.4	19.7
COC(=O)Cn1c(=O)c2c(nc3n(-c4ccc(N(C)C)cc4)c(C)cn23)n(C)c1=O
 : -17.1	-15.5
Nc1nc(CSCCO)nc(Nc2ccc(F)cc2)n1
 : 12.9	11.7
Fc1ccccc1-c1nnc(SCc2cccc(C(F)(F)F)c2)n1-c1ccccc1
 : 15.5	18.2
COc1ccc(-n2c(CCC(=O)N3CCCC(C)C3)ccc2-c2ccc(Cl)cc2)cc1 (stereo not drawn)
 : 1.1	-4.1
CCCc1c(-c2ccccc2)ncn1CCCSC
 : 1.2	-3.4
O=c1c2ccccc2oc2nc(C3CCCCC3)n(-c3ccccc3)c(=O)c12
 : 2.2	0.0
COc1ccc(NC(=O)Cn2cnc3c([nH]c4ccc(C)cc43)c2=O)c(C)c1
 : -1.0	-2.8
O=C(O)c1cccc(Cn2c(Cl)c(/C=N\NC(=O)c3ccncc3)sc2=O)c1
 : -4.8	-9.0
C=C(C)COc1ccccc1C(=O)N1Cc2ccccc2CC1C(N)=O (stereo not drawn)
 : 18.5	8.6
COc1ccc(-n2nnnc2SCCC#N)cc1
 : -3.8	-4.1
O=C(CN1C(=O)C(Oc2ccccc2)C1c1ccccn1)N1CCN(c2cccc(O)c2)CC1 (stereo not drawn)
 : 9.6	7.0
CCOC(=O)C1(Cc2ccccc2)CCCN(S(=O)(=O)c2c(C)nn(C)c2C)C1 (stereo not drawn)
 : 7.3	3.9
CCCCc1nc2cc(C(=O)N3CCCCC3C(=O)OC)ccc2o1 (stereo not drawn)
 : 4.4	0.6
N#CC(=C(O)CC12CC3CC(CC(C3)C1)C2)c1nc2ccccc2s1
 : -5.5	-12.3
O=C(NC1CCCCC1)C1CCN(S(=O)(=O)c2ccc3c(c2)CCC3)CC1
 : 9.8	9.6
OCC1(CCCc2ccccc2)CCN(Cc2ccc(F)cc2)CC1
 : -8.8	-12.1

Looked up by compound from the entries so far, 5 records:
Each structure is followed by: NPYLR7 agonist	NPYLR7 agonist max-min
O=C(C1CCCN(Cc2ccco2)C1)N1C[C@H]2C[C@H](O)[C@H](O)C[C@H]2C1 (stereo partly drawn)
 : 4.1	2.9
CC(=O)N1CCC(NCc2ccc(-n3ccnc3C)cc2)CC1
 : 3.5	1.9
CCn1c(CCNC(=O)CN2CCCN(C)CC2)nc2ccccc21
 : 6.6	0.1
Cc1cc(CNC(=O)NC2CCCc3cc(OC(F)F)ccc32)no1 (stereo not drawn)
 : -0.3	14.3
COc1ccc(NC(=O)N(CC(=O)N(Cc2ccc(F)cc2)Cc2sccc2C)C2CCCCC2)c(OC)c1
 : 1.0	-5.4

Other compounds
Each structure is followed by: NPYLR7 agonist	NPYLR7 agonist max-min
Cn1cc(C#N)cc1C(=O)NCCc1ccccc1C(F)(F)F
 : -7.5	-8.1
COc1ccc(C)cc1N1C(=O)CSC1c1ccccc1NC(=O)c1ccc(C(F)(F)F)cc1 (stereo not drawn)
 : -2.0	0.4
COc1ccc(NC(=O)C2CCN(C(=O)[C@@H](Cc3ccccc3)NC(=O)c3cc(C)nn3C)CC2)cc1
 : 9.0	13.5
NC(=O)c1ccc(N2CC3CCC2C3)nn1 (stereo not drawn)
 : -1.8	33.8
Cc1ccc(Cl)c(Oc2cc(N3CCN(C(=O)Cc4cccs4)CC3)ncn2)c1
 : -9.1	-8.3

Compound activity from PubChem BioAssay.

An excerpt; count on the stated rates, not on these rows.
